# Screening results from PubChem.
# NOMO-1 viab – STK33 inhibitor candidate reducing NOMO-1 cell viability | NOMO-1 AML viability, CellTiter-Glo luminescence, 72 h | inhibition, % (no concentration beside the values) | hit rate 7.5% among 37,000 | AID 2330;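 active means most replicates above 80%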;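 further: wells of about 30 µL received 25 nL stock; 0% = median of vehicle wells and 100% = reference inhibitor level; the first replicate is given; inactives centre near 10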
# Numbers without * were called inactive. Only part of the results is shown, so the mix of outcomes need not match the whole.
entry	Structure	NOMO-1 viab
1	O=C(NCc1cccnc1)c1ccc2c(c1)C(=O)N(CC1CCCO1)C2=O (configuration not stated)	25.0
2	C[C@@H]1CN([C@@H](C)CO)C(=O)c2cccc(NS(=O)(=O)c3ccccc3)c2O[C@H]1CN(C)Cc1ccccc1	-2.7
3	C[C@@H]1CN([C@H](C)CO)C(=O)Cc2cc(NC(=O)Nc3cccc4ccccc34)ccc2O[C@@H]1CN(C)C(=O)Nc1ccc(C(F)(F)F)cc1	47.3
4	COc1ccc(NC(=O)Nc2cccc3c2O[C@@H](CN(C)Cc2ccccc2)[C@H](C)CN([C@@H](C)CO)C3=O)cc1	93.1*
5	C[C@@H]1CCCCO[C@@H](CN(C)S(=O)(=O)c2ccc(F)cc2)[C@@H](C)CN([C@H](C)CO)C(=O)c2cc(NC(=O)Cc3ccccc3)ccc2O1	20.9
6	C[C@@H]1CN([C@H](C)CO)C(=O)Cc2cc(NC(=O)Nc3ccccc3)ccc2O[C@@H]1CN(C)C(=O)Nc1ccc2c(c1)OCO2	6.7
7	CC1CC(=O)c2c(ccc3c2C(=O)c2c(O[C@@H]4O[C@@H](C)[C@H](O)[C@@H](O)[C@H]4O)cccc2C3=O)C1 (some centres not stated)	26.0
8	CNC(=O)NC(=O)CSc1nnc(Cc2ccccc2)n1-c1ccc(Cl)cc1	5.0
9	C[C@@H]1CCCCO[C@@H](CN(C)C)[C@@H](C)CN([C@H](C)CO)C(=O)c2cc(NS(=O)(=O)c3cn(C)cn3)ccc2O1	-0.3
10	CNC[C@@H]1Oc2ccc(NC(=O)CCN3CCOCC3)cc2C(=O)N([C@@H](C)CO)C[C@H]1C	8.1
11	Cc1noc(C)c1S(=O)(=O)Nc1ccc2c(c1)C(=O)N([C@H](C)CO)C[C@H](C)[C@H](CN(C)Cc1ccc(-c3ccccc3)cc1)O2	42.7
12	Cc1cc(C(=O)Nc2cccc3c2O[C@H](CN(C)C(=O)NC(C)C)[C@H](C)CN([C@@H](C)CO)C3=O)n(C)n1	9.0
13	COc1ccc(NS(=O)(=O)c2ccc3oc4ccccc4c3c2)cn1	-2.9
14	C[C@@H]1CCCCO[C@@H](CN(C)Cc2ccc(C(=O)O)cc2)[C@@H](C)CN([C@H](C)CO)C(=O)c2cc(NC(=O)Nc3ccc(F)cc3)ccc2O1	-9.2
15	C[C@@H]1CN([C@H](C)CO)C(=O)c2cc(NC(=O)Nc3ccc(C(F)(F)F)cc3)ccc2O[C@H]1CN(C)S(=O)(=O)c1cccs1	45.3
16	COc1cc(CO)cc(Cl)c1OCc1cccc([N+](=O)[O-])c1	-0.5
17	C[C@@H]1CN([C@@H](C)CO)C(=O)Cc2cc(NC(=O)Nc3ccc(F)cc3)ccc2O[C@@H]1CN(C)Cc1ccc(C(=O)O)cc1	12.8
18	C[C@@H]1CCCCO[C@@H](CN(C)C)[C@@H](C)CN([C@H](C)CO)C(=O)c2cc(NC(=O)Cc3ccccc3)ccc2O1	9.2
19	C[C@H]1CN([C@@H](C)CO)C(=O)c2cc(NC(=O)Nc3ccc4c(c3)OCO4)ccc2O[C@H]1CN(C)Cc1ccc(Cl)c(Cl)c1	-1.6
20	COc1cc(/C=C/C(=O)OC2C(COC(=O)c3cc(OC)c(OC)c(OC)c3)OC(OC3(CO)OC(CO)C(O)C3O)C(O)C2O)cc(OC)c1OC (configuration not stated)	32.6
21	Cc1noc(C)c1S(=O)(=O)Nc1ccc2c(c1)C(=O)N([C@H](C)CO)C[C@H](C)[C@H](CN(C)S(=O)(=O)c1cccs1)O2	32.6
22	NCCCN(Cc1ccco1)C1CCCC1	106.1*
23	C[C@H](CO)N1C[C@H](C)[C@H](CN(C)C(=O)Nc2ccc(C(F)(F)F)cc2)Oc2c(NC(=O)c3cnccn3)cccc2C1=O	-6.1
24	COc1ccccc1C1CCN(C(=O)c2ccco2)CC1	18.1
25	CC(C)NC(=O)N(C)C[C@H]1OCCCC[C@@H](C)Oc2ccc(NC(=O)C3CCCCC3)cc2C(=O)N([C@H](C)CO)C[C@@H]1C	0.2
26	C[C@H]1CN([C@@H](C)CO)C(=O)Cc2cc(NC(=O)Nc3ccc(C(F)(F)F)cc3)ccc2O[C@@H]1CN(C)CC1CCCCC1	125.4*
27	Cc1cccnc1NC(=O)Cn1nc([N+](=O)[O-])cc1C	0.5
28	CCn1c(C)[n+](CC)c2ccccc21	-13.8
29	COc1cccc(NC(=O)CSc2ncnc3scc(-c4ccc(C)cc4)c23)c1	-4.5
30	C[C@H](CO)N1C[C@H](C)[C@H](CN(C)Cc2ccccc2)Oc2c(NC(=O)Nc3cccc4ccccc34)cccc2C1=O	69.8

# Some of these compounds in order of number of heavy atoms, lowest first:
entry	Structure	NOMO-1 viab
8	CNC(=O)NC(=O)CSc1nnc(Cc2ccccc2)n1-c1ccc(Cl)cc1	5.0
23	C[C@H](CO)N1C[C@H](C)[C@H](CN(C)C(=O)Nc2ccc(C(F)(F)F)cc2)Oc2c(NC(=O)c3cnccn3)cccc2C1=O	-6.1
3	C[C@@H]1CN([C@H](C)CO)C(=O)Cc2cc(NC(=O)Nc3cccc4ccccc34)ccc2O[C@@H]1CN(C)C(=O)Nc1ccc(C(F)(F)F)cc1	47.3

# Other records follow.
entry	Structure	NOMO-1 viab
31	CCN(CC(=O)O)S(=O)(=O)c1cc(Cl)ccc1Cl	23.2
32	CCc1ccc(NC(=O)CSc2nc(C)cc(C)n2)cc1	18.1
33	COc1ccc(NC(=O)Nc2ccc3c(c2)C(=O)N([C@H](C)CO)C[C@H](C)[C@H](CN(C)Cc2ccccc2)OCCCC[C@@H](C)O3)cc1	31.3
34	CC(C)NC(=O)N(C)C[C@H]1Oc2c(NC(=O)C3CCOCC3)cccc2C(=O)N([C@@H](C)CO)C[C@@H]1C	12.3
35	CC1/C(=N/O)C[C@@H]2C[C@H]1C2(C)C (some centres not stated)	15.3
36	COc1ccc(NC(=O)N(C)C[C@@H]2Oc3c(NC(=O)NC(C)C)cccc3C(=O)N([C@@H](C)CO)C[C@@H]2C)cc1	8.1
37	CC(C)S(=O)(=O)c1csc(NC(=O)Nc2cc(C(F)(F)F)cc(C(F)(F)F)c2)c1Cl	112.7*
38	C[C@H]1CN([C@@H](C)CO)C(=O)c2cc(NS(=O)(=O)c3cccs3)ccc2O[C@H]1CN(C)C(=O)Nc1ccc(C(F)(F)F)cc1	25.0
39	COc1ccc(NC(=O)N(C)C[C@H]2Oc3ccc(NC(=O)Cc4cn(C)c5ccccc45)cc3CC(=O)N([C@H](C)CO)C[C@H]2C)cc1	-9.1
40	Cc1ccc(S(=O)(=O)N(C)C[C@H]2Oc3ccc(NC(=O)C4CC4)cc3CC(=O)N([C@@H](C)CO)C[C@H]2C)cc1	10.6
41	CNC[C@H]1Oc2ccc(NC(=O)Nc3ccc4c(c3)OCO4)cc2CC(=O)N([C@@H](C)CO)C[C@@H]1C	9.6
42	O=C(CSc1nnc(-c2ccccc2Cl)n1-c1ccccc1)Nc1ccccc1C(F)(F)F	31.5
43	CN(CC(=O)Nc1cc(C(F)(F)F)ccc1Cl)S(=O)(=O)c1ccc2ccccc2c1	-16.6
44	C[C@H]1CN([C@@H](C)CO)C(=O)c2cc(NC(=O)CCCN(C)C)ccc2O[C@H]1CN(C)Cc1ccc(Oc2ccccc2)cc1	35.8
45	CNC[C@@H]1Oc2c(NC(=O)C3CC3)cccc2C(=O)N([C@@H](C)CO)C[C@@H]1C	32.3
46	COc1cccc(S(=O)(=O)NCc2ccc(C(=O)O)cc2)c1	-20.3
47	COCCn1c(=O)c2c3c(sc2n(CC(N)=O)c1=O)CCCC3	-10.7
48	C[C@@H]1CN([C@@H](C)CO)C(=O)c2cccc(NC(=O)Nc3ccccc3)c2O[C@H]1CN(C)Cc1ccc(C(=O)O)cc1	-1.0
49	C[C@@H]1CN([C@H](C)CO)C(=O)Cc2cc(NS(=O)(=O)c3ccccc3)ccc2O[C@@H]1CN(C)Cc1ccc(C(=O)O)cc1	-1.7
50	COc1cccc(Oc2coc3cc(OCC(N)=O)ccc3c2=O)c1	-1.3
51	Cc1ccc(S(=O)(=O)Nc2ccc3c(c2)C(=O)N([C@H](C)CO)C[C@@H](C)[C@H](CN(C)S(=O)(=O)c2cccs2)O3)cc1	-6.1
52	COc1ccc(/C=C2/SC(=S)N(C)C2=O)cc1	-15.0
53	COc1ccc(Cl)cc1NC(=O)CSc1nnc(N)s1	4.3
54	C[C@H](CO)N1C[C@H](C)[C@H](CN(C)Cc2ccc(C(=O)O)cc2)Oc2c(NC(=O)C3CCCCC3)cccc2C1=O	-18.2
55	Cc1ccc(S(=O)(=O)N(C)C[C@H]2Oc3ccc(NS(=O)(=O)c4cccs4)cc3C(=O)N([C@H](C)CO)C[C@@H]2C)cc1	-11.7
56	C[C@H]1CN([C@@H](C)CO)C(=O)Cc2cc(NS(=O)(=O)c3cn(C)cn3)ccc2O[C@@H]1CN(C)C	9.4
57	C[C@H](CO)N1C[C@H](C)[C@H](CN(C)Cc2ccc3c(c2)OCO3)Oc2ccc(NC(=O)Cn3cnnn3)cc2CC1=O	-14.7
58	COc1cc(C(c2c[nH]c3ccccc23)c2c[nH]c3ccccc23)c(O)c([N+](=O)[O-])c1	4.6
59	C[C@H]1CN([C@@H](C)CO)C(=O)c2cc(NS(=O)(=O)c3cccs3)ccc2O[C@@H]1CN(C)S(=O)(=O)c1ccccc1	15.9
60	CC(=O)Nc1ccc(C(=O)CSc2ncn[nH]2)cc1	-0.4
61	C[C@@H]1CN([C@H](C)CO)C(=O)c2cc(NC(=O)CCC(F)(F)F)ccc2O[C@@H]1CN(C)C(=O)Nc1ccccc1	-0.4
62	C[C@@H]1CN([C@H](C)CO)C(=O)c2cc(NC(=O)Cc3cn(C)c4ccccc34)ccc2O[C@H]1CN(C)C(=O)NC1CCCCC1	1.3
63	C[C@@H]1CCCCO[C@@H](CN(C)S(=O)(=O)c2ccccc2)[C@@H](C)CN([C@H](C)CO)C(=O)c2cc(NC(=O)Nc3ccccc3)ccc2O1	12.3
64	CN1c2ccsc2-c2nc(SCc3ccc(Cl)cc3)ncc2S1(=O)=O	28.5
65	C[C@@H]1CN([C@@H](C)CO)C(=O)Cc2cc(NC(=O)Nc3ccc4c(c3)OCO4)ccc2O[C@@H]1CN(C)S(=O)(=O)c1cn(C)cn1	2.5
66	Cc1noc(C)c1NC(=O)Nc1ccc2c(c1)C(=O)N([C@@H](C)CO)C[C@H](C)[C@@H](CN(C)Cc1ccc(-c3ccccc3)cc1)O2	7.1
67	Cc1noc(C)c1S(=O)(=O)Nc1cccc2c1O[C@@H](CN(C)S(=O)(=O)c1cn(C)cn1)[C@@H](C)CN([C@H](C)CO)C2=O	-13.4
68	Cc1cc(I)ccc1NC(=O)CCN1C(=O)c2cccc([N+](=O)[O-])c2C1=O	-21.1
69	C=C1CCC(O)/C(C)=C\CC(C(C)C)C(OC2OC(COC(C)=O)C(O)C(O)C2O)C1 (configuration not stated)	-0.4
70	COc1ccccc1NC(=O)Cn1cc(C(=O)C2CCCCC2)c2ccccc21	28.7
71	CC(C)NC(=O)Nc1ccc2c(c1)C(=O)N([C@H](C)CO)C[C@H](C)[C@@H](CN(C)S(=O)(=O)c1ccc(Cl)cc1)OCCCC[C@@H](C)O2	17.6
72	Cc1cccc(-n2c(N)cc(=O)nc2SCC(=O)Nc2sc3c(c2C#N)CCCCCC3)c1	38.9
73	Cc1noc(C)c1NC(=O)Nc1ccc2c(c1)C(=O)N([C@H](C)CO)C[C@H](C)[C@@H](CN(C)Cc1ccc3c(c1)OCO3)OCCCC[C@@H](C)O2	0.1
74	Cc1ccc2oc(-c3ccccc3)c(CN3CCOCC3)c(=O)c2c1	21.4
75	C[C@@H]1CN([C@@H](C)CO)C(=O)Cc2cc(NC(=O)C3CCCCC3)ccc2O[C@@H]1CN(C)S(=O)(=O)c1cccs1	15.7
76	C[C@H]1CN([C@@H](C)CO)C(=O)Cc2cc(NC(=O)C3CC3)ccc2O[C@H]1CN(C)Cc1ccccc1	10.7
77	COC(=O)c1c(NC(=S)Nc2ccc(CC(=O)O)cc2)sc(C)c1C	-23.1
78	COc1ccc(S(=O)(=O)N(C)C[C@@H]2Oc3ccc(NC(=O)C4CCCCC4)cc3CC(=O)N([C@@H](C)CO)C[C@@H]2C)cc1	18.5
79	COc1ccc(NC(=O)N(C)C[C@H]2Oc3ccc(NC(=O)CCCCCC(=O)Nc4ccccc4N)cc3C(=O)N([C@H](C)CO)C[C@H]2C)cc1	-1.0
80	O=C(Nc1cccc(Cn2cccn2)c1)c1cc(-c2cccnc2)nc2ccc(Cl)cc12	26.7
81	CC(NC(=O)COc1ccc(Cl)cc1Cl)C(=O)O (configuration not stated)	-1.5
82	COc1ccc(S(=O)(=O)N(C)C[C@@H]2OCCCC[C@@H](C)Oc3ccc(NS(C)(=O)=O)cc3C(=O)N([C@H](C)CO)C[C@@H]2C)cc1	-2.2
83	C[C@@H]1CN([C@H](C)CO)C(=O)Cc2cc(NC(=O)CCN3CCOCC3)ccc2O[C@H]1CN(C)C(=O)Nc1ccc(C(F)(F)F)cc1	14.4
84	CCOc1ccc(NC(=O)c2c(NC(=O)c3ccco3)sc3c2CCCCC3)cc1	110.0*
85	CC1N=C(SCC#N)N2C(C)N=C(SCC#N)N12 (configuration not stated)	36.4
86	Cc1cccc(-n2c(CCN3C(=O)c4ccccc4C3=O)nc3ccccc3c2=O)n1	34.2
87	C[C@@H]1CN([C@H](C)CO)C(=O)c2cccc(NC(=O)C3CCCCC3)c2O[C@@H]1CN(C)Cc1ccc(Oc2ccccc2)cc1	24.8
88	Cc1ccc(N(C(=O)COc2ccccc2[N+](=O)[O-])C2C=CS(=O)(=O)C2)cc1 (configuration not stated)	26.8
89	C[C@@H]1CCCCO[C@@H](CN(C)S(=O)(=O)c2cn(C)cn2)[C@@H](C)CN([C@H](C)CO)C(=O)c2cc(NC(=O)Nc3ccc4c(c3)OCO4)ccc2O1	28.9

# Shown as labelled records: 2 of the compounds above.
87) C[C@@H]1CN([C@H](C)CO)C(=O)c2cccc(NC(=O)C3CCCCC3)c2O[C@@H]1CN(C)Cc1ccc(Oc2ccccc2)cc1
- NOMO-1 viab = 24.8

88) Cc1ccc(N(C(=O)COc2ccccc2[N+](=O)[O-])C2C=CS(=O)(=O)C2)cc1 (configuration not stated)
- NOMO-1 viab = 26.8
